Kir21 inh: inhibitors of mouse Kir2.1 inward-rectifier potassium channel | B-score at 10 µM | AID 1672, 2009 | hit rate 0.85% among 310,000 | Inward rectifier potassium channel 2 (Mus musculus), P35561 | HEK293-Kir2.1, FluxOR thallium flux fluorescence; hits give low values;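 active = fluorescence ratio B-score at or below minus 3 SD of library scores, with starting-brightness B-score within 2 SD, cut at about -4.2 in these data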;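 note: channel flux triggered by added potassium and thallium sulfate stimulus; B-score of peak minus minimum fluorescence over baseline after thallium stimulus; more negative B-score means stronger Kir2.1 block with less thallium influx; some compounds called inactive have numbers as strong as hits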
Target sequence (P35561 whole entry, looked up): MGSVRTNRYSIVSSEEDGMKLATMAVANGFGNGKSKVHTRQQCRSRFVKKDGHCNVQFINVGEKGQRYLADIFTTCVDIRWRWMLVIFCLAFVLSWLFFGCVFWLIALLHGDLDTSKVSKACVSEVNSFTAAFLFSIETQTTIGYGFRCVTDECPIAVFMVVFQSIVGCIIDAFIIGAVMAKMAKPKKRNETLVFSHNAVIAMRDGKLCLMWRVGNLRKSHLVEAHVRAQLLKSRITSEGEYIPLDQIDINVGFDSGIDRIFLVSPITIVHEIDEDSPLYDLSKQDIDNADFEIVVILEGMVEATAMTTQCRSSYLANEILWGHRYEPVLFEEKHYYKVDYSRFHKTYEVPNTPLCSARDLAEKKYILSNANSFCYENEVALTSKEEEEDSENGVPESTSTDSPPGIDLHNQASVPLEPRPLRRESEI
* hit, by the source's call. Some of the compounds tested, and most or all hits are left out here.

The opening 3 compounds (preview)
SMILES	Kir21 inh
CCNC(=S)Nc1ccc(Cl)cc1	1.2
O=C(c1ccc(S(=O)(=O)c2ccc(F)cc2)c([N+](=O)[O-])c1)N1CCCCCC1	-0.3
CCc1ccccc1NC(=O)CN(C)C(=O)CSc1nn(-c2ccc(F)cc2)c(=S)s1	0.16

All compounds of this part, previewed entries included:
SMILES	Kir21 inh
CCNC(=S)Nc1ccc(Cl)cc1	1.2
O=C(c1ccc(S(=O)(=O)c2ccc(F)cc2)c([N+](=O)[O-])c1)N1CCCCCC1	-0.3
CCc1ccccc1NC(=O)CN(C)C(=O)CSc1nn(-c2ccc(F)cc2)c(=S)s1	0.16
CCN(CC)S(=O)(=O)c1ccc(N2CCN(c3ccccc3OC)CC2)c(N)c1	-0.89
COc1ccc(-n2cc([N+](=O)[O-])c(=O)c3ccc(Cl)cc32)cc1	-3.2
CCC(CC)C(=O)Nc1cccc(C(=O)Nc2nccs2)c1	-0.21
Cc1ccc(S(=O)(=O)c2ccc(Cl)cc2)cc1S(=O)(=O)NC(C(=O)O)C(C)C (stereo not drawn)	0.95
O=C(c1sc2ccccc2c1Cl)N1CCN(c2ccccn2)CC1	1
CC(Oc1ccc2c3c(c(=O)oc2c1)CCC3)C(=O)NCCN1CCOCC1 (stereo not drawn)	1.2
COc1ccc(S(=O)(=O)NC2CCCC2)cc1NC(C)=O	2.8
CCOC(=O)c1c(NC(=O)CSc2nnnn2-c2ccc3c(c2)OCCO3)sc(C)c1C	-0.69
COc1ccc(-n2c(=O)[nH]cc(C(=O)Nc3ccc4c(c3)OCCO4)c2=O)cc1	0.95
CCc1nc2ccccc2[nH]1	0
C=C(C)C(=O)NNc1ccccc1	1.7
CCc1cccc(Nc2cc(C)nc3nc(C)nn23)c1	-0.04
O=C(Nc1ccccc1N1CCCCC1)c1ncoc1-c1cccc(F)c1	-0.53
Cn1nc(C(F)(F)F)c(-c2cccc(C(F)(F)F)c2)c1NC(=O)c1cccnc1	-0.04
Cc1ccccc1NC(=O)c1cc(S(=O)(=O)N2CCCCC2)cs1	1.6
C/C(=N/OCO/N=C(\C)c1ccccc1)c1ccccc1	1.7
COC(=O)C1=NNCC12CC(=O)N(c1ccc(Br)cc1)C2=O (stereo not drawn)	1.3
COc1ccc(NC(=O)c2ccc(COc3ccccc3)o2)c(OC)c1	-0.03
CCOC(=O)C(NC(C)=O)C(=O)Nc1ccc(C(C)(C)C)cc1 (stereo not drawn)	-0.45
COc1ccc(-c2nn(-c3ccccc3)cc2/C=N/NC(N)=S)cc1OC	-0.2
CC(=O)c1ccc(NC(=O)COC(=O)c2ccc(F)cc2F)cc1	1.7
Cc1ccc(C)c(OCC(=O)NCCN(C)C)c1	1.6
COC(=O)c1cc(OC)c(OC)cc1NC(=S)N1CCCC(CO)C1 (stereo not drawn)	0.33
COCc1cc(C)nc(Nc2ccc(C)c(C)c2)c1C#N	0.89
O=C(CCN1C(=O)c2cccc3cccc(c23)C1=O)NCC1CCCO1 (stereo not drawn)	1.2
C=CCn1c(CCNC(=O)c2cccs2)nnc1SCC(=O)Nc1cccc(C(C)=O)c1	0.58
O=C(c1c[nH]c(C(=O)C(Cl)(Cl)Cl)c1)c1ccc(F)cc1F	1.2
CCCOC(=O)Cc1c(O)c2ccccc2[nH]c1=O	-0.77
COCCNC(=O)C1CC(c2ccc(F)cc2)=NO1 (stereo not drawn)	0.33
COc1ccc(NC(=O)CN(C)C(=O)c2ccccc2CCc2ccccc2)cc1	-0.7
CCn1nc(C)c(C2C(C#N)=C(N)Oc3n[nH]c(C)c32)c1C (stereo not drawn)	-3.3
CCC1CCCCN1CCCNC(=O)C1CCCN(S(=O)(=O)N2CC(C)CC(C)C2)C1 (stereo not drawn)	-2.2
O=C(CSc1nnc(-c2cccc(S(=O)(=O)N3CCCC3)c2)n1-c1ccccc1)Nc1cccc(C(=O)O)c1	-0.3
CCS(=O)(=O)Nc1cccc(C2=NN(S(C)(=O)=O)C(c3ccccc3)C2)c1 (stereo not drawn)	-0.69
COc1ccc(NC(=O)CSc2nnc(CNc3ccc(F)cc3)o2)c(OC)c1	-0.45
COCC(=O)N1CCCC(C(=O)c2ccc(C(F)(F)F)cc2)C1 (stereo not drawn)	-0.11
COc1cccc(N/C(SCc2ccccc2Cl)=C(/C#N)C(=O)NCc2cccs2)c1	-1
O=C(OCC(=O)N1CCCc2ccccc21)c1cccnc1Cl	0.01
COc1ccccc1Cn1c(=O)c2ccccc2n2c(Sc3ncnc4sccc34)nnc12	-0.21
COc1ccc(C/C(N)=N/OC(=O)c2cccc([N+](=O)[O-])c2)cc1	-0.16
O=C(Cc1ncc(C(F)(F)F)cc1Cl)Nc1cccc(Br)c1	-3
CCOC(=O)c1nnn(-c2nonc2-n2cccc2)c1CN1CCC(C(=O)OCC)CC1	-1.5
O=C(NC1CC1)c1ccc(CS(=O)c2ccc(Br)cc2)o1 (stereo not drawn)	-0.14
COc1ccccc1NC(=O)COC(=O)CN1C(=O)C(=O)c2ccccc21	1.3
COC(=O)c1ccc(NC(=O)CN2C(=O)c3ccccc3S2(=O)=O)cc1	-1.4
Cc1nc2cc(NC(=O)c3ccc(N4C(=O)CCC4=O)cc3)ccc2s1	-0.21
COc1ccc(NC(C)=O)cc1S(=O)(=O)N1CCN(C/C=C/c2ccccc2)CC1	0.11

More records follow:
SMILES	Kir21 inh
Cc1ccc(CNC(=O)C2CC=CCC2C(=O)O)cc1 (stereo not drawn)	-0.72
CCCCOC(=O)Nc1nnc(CC)s1	1.5
Cc1ccc(NC(=O)c2ccc(OCC3CCCO3)cc2)c(C)c1 (stereo not drawn)	-0.66
COc1cccc(CN2CCNC(=O)C2CC(=O)NCc2cn3ccccc3n2)c1OC (stereo not drawn)	0.67
O=C(NC1CCCC1)c1cc2ccccc2o1	1.5
Cn1c(=O)[nH]c(=O)c2c1nc(NCCCn1ccnc1)n2CCOc1ccccc1	-1.7
O=C(COC(=O)c1ccccc1Nc1ccccc1)NCc1ccccc1Cl	1.4
Cc1cccc(C)c1NC(=O)C1(N(Cc2ccco2)C(=O)c2ccccn2)CCCC1	-0.78
O=[N+]([O-])c1ccc(NCCCN2CCOCC2)c([N+](=O)[O-])c1	1.1
NNC(=O)c1sc2nc(N3CCOCC3)c3c(c2c1N)CCCC3	-1.9
Cc1ccc(NC(=O)COC(=O)CCC(=O)c2ccc(Cl)cc2)cc1S(=O)(=O)N(C)C	0.27
CCCCC(=O)Nc1ccccc1C(C)C	1.4
O=c1nc(N2CCOCC2)nc(N/N=C/c2ccc3c(c2)OCO3)[nH]1	-0.59
COc1ccc(CN2CNc3nc4ccccc4n3C2)cc1	0.75
CCC(=O)Nc1ccc(NC(=O)c2ccccc2)nc1	1.8
O=C(NC(=S)Nc1ccc(S(=O)(=O)Nc2nccs2)cc1)c1cccc(F)c1	0.84
O=C(NC1CCCCNC1=O)c1ccc(Cl)cc1 (stereo not drawn)	0.5
O=C(NNc1cccc([N+](=O)[O-])c1)/C(=C\c1cccnc1)NC(=O)c1ccccc1	-0.36
COc1ccc(/C=C/C(=O)N2CCC(C(N)=O)CC2)cc1S(=O)(=O)N1CCOCC1	1.2
COc1ccc(S(=O)(=O)Nc2nc3c(s2)C(=O)CC(C)(C)C3)cc1	-0.59
Cc1nc(NC(=O)c2ccccc2)nc2cc3c(cc12)OCO3	-3.1
COc1ccccc1OCC(=O)Nc1cc(NC(=O)COc2ccccc2OC)cc(C(=O)O)c1	3
O=C(CCC(=O)N1CCN(c2ccc(O)cc2)CC1)c1cccs1	-1.2
N#CCN(CC#N)C(=O)C1c2ccccc2Oc2ccccc21	-1.3
Cc1ccc(NNC(=O)c2c(C)noc2C)cc1Cl	1.1
Cc1ccc(C)c(NC(=S)Nc2cccnc2)c1	0.53
OCCC1CN(Cc2nc3c(s2)CCCC3)CCN1CCc1ccccc1 (stereo not drawn)	0.04
CCOc1ccc(-c2nc(S(=O)(=O)c3ccccc3)c(NCc3cccnc3)o2)cc1	0.38
CCCc1cc(=O)[nH]c(SCCOc2ccc(Cl)cc2)n1	-0.01
CCOc1ccc(-c2csc(NC(=O)c3ccc(S(=O)(=O)N4CCc5ccccc5C4)cc3)n2)cc1	0.79
C=C(C)C(=O)N1CC2(CC(c3cccc(NC(=O)/C=C\C)c3)=NO2)C[C@H]1C(N)=O (stereo partly drawn)	0.1
CC(=O)Nc1cccc(NC(=O)CSc2nc(=O)n(CCCN3CCOCC3)c3c2CCC3)c1	-0.22
COc1cc(NS(=O)(=O)c2ccc(NC(=S)NC(=O)/C=C/c3ccc(F)cc3)cc2)ncn1	-1.1
CCC(C)c1ccccc1N=Cc1ccc2c(c1)OCO2 (stereo not drawn)	-0.45
CC12CCC(C(=O)NCC3CCCO3)(OC1=O)C2(C)C (stereo not drawn)	-0.84
Cc1cc(C)n(-c2nc3ccccc3nc2N2CCN(C(=O)c3ccc(F)cc3)CC2)n1	2
Cc1nc(-c2ccc3c(c2)OCO3)cs1	-0.88
CCc1nnc(NC(=O)c2ccc(S(=O)(=O)N(C)c3ccccc3)cc2)o1	1.9
CCCCOC(=O)c1nc[nH]c1C(=O)OCCCC	1.3
CCOC(=O)c1c(N)sc(C(=O)Nc2ccccc2F)c1C	1.1

An excerpt of these results, bar-delimited.
SMILES | Kir21 inh
C=C(C)C(=O)N1CC2(CC(c3cccc(NC(=O)/C=C\C)c3)=NO2)C[C@H]1C(N)=O (stereo partly drawn) | 0.1
CC(=O)Nc1cccc(NC(=O)CSc2nc(=O)n(CCCN3CCOCC3)c3c2CCC3)c1 | -0.22
COc1cc(NS(=O)(=O)c2ccc(NC(=S)NC(=O)/C=C/c3ccc(F)cc3)cc2)ncn1 | -1.1
CCC(C)c1ccccc1N=Cc1ccc2c(c1)OCO2 (stereo not drawn) | -0.45

Remaining list, next part
SMILES	Kir21 inh
CCN(CC)C(=O)CN1C(=O)c2cccc3cccc(c23)C1=O	0.74
COc1cccc(N2C(=O)CC(N3CCC(C(N)=O)(N4CCCCC4)CC3)C2=O)c1 (stereo not drawn)	0.01
Cc1nc2ccc(NC(=O)c3ccc(Br)o3)cc2s1	-0.11
O=C(NCCC1=CCCCC1)c1ccc(=O)oc1	0
Cc1cccc(NC(=O)CNC(=O)c2sc3ccccc3c2Cl)n1	-0.49
Cc1ccc(NS(=O)(=O)c2ccc3c(c2)CC(=O)N3)cc1C	-0.58
CC(=O)c1sc(NC(=O)c2cc(=O)c3ccccc3o2)nc1C	1.2
Cn1c(=O)n(CC(=O)OCc2ccccc2)c(=O)c2c1nc1n2CCCN1C1CCCCC1	-0.2
CN(C)S(=O)(=O)c1ccc(S(=O)(=O)N(CC(=O)Nc2ccccc2)CC2CCCO2)cc1 (stereo not drawn)	-0.78
Cc1cccc(NC(=O)c2ccc(NCCO)c([N+](=O)[O-])c2)n1	0.95
Cc1nn(CC(=O)NCCc2ccc(Cl)cc2Cl)c(C)c1[N+](=O)[O-]	0
Cc1ccc(Nc2nc(N3CCN(C)CC3)nc(N)c2[N+](=O)[O-])cc1C	0.46
COc1ccccc1C1CC(=O)Nc2cc3c(cc21)OCCO3 (stereo not drawn)	0.7
Cc1cc(C)nc(N/N=C/C=C/c2ccccc2)n1	-0.03
Cn1c(SCC(N)=O)nnc1C1CCN(C(=O)NCc2ccccc2)CC1	-0.74
CS(=O)(=O)N1CCCC(C(=O)NCCCN2CCc3ccccc3C2)C1 (stereo not drawn)	0.01
Cc1csc(=Nc2c(C)n(C)n(-c3ccccc3)c2=O)n1-c1ccccc1	-2
Cc1cc(Cl)c2oc(C(=O)N(C)CCCN3CCOCC3)c(C)c2c1	-0.31
O=S(=O)(NCCNS(=O)(=O)c1cccs1)c1cccs1	0.81
CCc1ccc(NC(=O)N2CCC(c3ccccc3)C2)cc1 (stereo not drawn)	-1.6
Cc1ccc(S(=O)(=O)/N=C(/Nc2ccc(F)cc2F)c2ccc(F)cc2)cc1	-1.3
Cc1ccc(N(C)C(=O)C2CCCN2S(=O)(=O)c2cccc3nsnc23)cc1 (stereo not drawn)	-2.1
Cc1ccccc1NC(=O)c1sc(NC(=O)C2CC2)nc1C	0.72
CC1CCC(NC(=O)CN(C)S(=O)(=O)c2cccc3cccnc23)CC1 (stereo not drawn)	2
CC(=O)Nc1cc(C(=O)OCC(=O)c2ccc(C)cc2)ccc1C	0.62
Cc1cccc(NC(=O)CC2Nc3cccc4cccc(c34)NC2=O)c1 (stereo not drawn)	1.4
O=C(NCc1ccccc1)C1CCCN(c2cnccn2)C1 (stereo not drawn)	0.88
CC(=O)NCCNC(=O)c1oc2ccccc2c1CSc1ncn[nH]1	0.06
CCOC(=O)N1CCN(C(=O)CN2C(=O)CC(C)(C)S(=O)(=O)c3ccccc32)CC1	-0.76
Cn1cccc2[nH]c(=O)nc1-2	0.48

Arranged by value in Kir21 inh (lowest first): some entries from above
SMILES	Kir21 inh
Cc1ccc(N(C)C(=O)C2CCCN2S(=O)(=O)c2cccc3nsnc23)cc1 (stereo not drawn)	-2.1
CC(=O)NCCNC(=O)c1oc2ccccc2c1CSc1ncn[nH]1	0.06
Cn1cccc2[nH]c(=O)nc1-2	0.48
CC(=O)Nc1cc(C(=O)OCC(=O)c2ccc(C)cc2)ccc1C	0.62
Cc1cccc(NC(=O)CC2Nc3cccc4cccc(c34)NC2=O)c1 (stereo not drawn)	1.4
CC1CCC(NC(=O)CN(C)S(=O)(=O)c2cccc3cccnc23)CC1 (stereo not drawn)	2

More entries.
SMILES	Kir21 inh
CCOC(=O)c1nc(NCc2ccccc2)sc1C	-0.12
COc1ccc(CNS(=O)(=O)c2ccc3c(c2)CCN3C(=O)C2CC2)cc1	-2
O=C(c1ccc2snnc2c1)N1CCSCC1	-1.9
S=C(c1ccc(-c2ccccc2)o1)N1CCCCC1	0.03
COCCNC(=S)N/N=C(\C)c1ccccc1F	0.24
Cc1ccc(CSCCNC(=O)/C=C/c2ccccc2Cl)cc1	-0.98
CCOC(=O)C1=C(C)NC(=O)CC1c1ccccc1OC (stereo not drawn)	0.24
COc1ccc(NC(=S)NC(NC(=O)/C=C/c2ccccc2)C(Cl)(Cl)Cl)cc1 (stereo not drawn)	0.73
